Assay outcomes deposited in PubChem BioAssay by National Center for Advancing Translational Sciences (NCATS).
AID923: qHTS Assay for Allosteric/Competitive Inhibitors of Caspase-1: Spectroscopic Profiling in AFC Spectral Region | compound fluorescence, AFC spectral region (405/520 nm); almost no hit is shown here | Potency, µM (doses to about 57.5 µM), without a hit: at the highest dose fluorescence increase, usual class: activators | 75,000 tested, 1.1% active | AID 923, 2007; active = well fitted activation curve with a large enough effect; inconclusive = small, poorly fitted or top-dose-only effect;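 note: potency is the fitted concentration of half-maximal effect; 0% is about no effect; scaled to a free AFC standard on each plate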
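Baseline compound fluorescence (AFC region, 405 nm ex/520 nm em) taken from the intercept of kinetic reads with 50 nM caspase-1 and 5 uM Ac-WEHD-AFC; normalized to an on-plate AFC standard curve; compounds titrated up to 57 uM.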
Resorufin autofl: resorufin region autofluorescence | Compound fluorescence, resorufin region 547/598 nm, buffer; stronger effect = higher value | max dye-equivalent concentration, M | 59,000 tested, 0.04% active; active = above 10 nM dye equivalent; inconclusive = 1 to 10 nM; inactive = 1 nM or less; a few of its hits are not listed in these tables; note: highest value over a series up to 38 µM
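Read-out: intrinsic compound fluorescence at ex 547/em 598 nm after 15 min at RT in pH 8.0 Tris (100 mM). Values expressed as resorufin-equivalent concentration from per-plate standard series.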
A488 fluor: compound fluoresces in the A488 spectral region. compound autofluorescence, A488 spectral region, dye equivalency; stronger effect = higher value. max dye equivalency, M. 59,000 tested, 0.1% active. AID 591; active = above 10 nM dye equivalent; inconclusive = 1 to 10 nM; inactive = 1 nM or less; about half of its hits are not listed in these tables;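 note: highest value over a series up to 38 µM; compound alone in buffer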
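Read-out: relative fluorescence at 480/540 nm, expressed as Alexa 488 dye-equivalent concentration from a six-point A488 standard included per plate. Conditions: 100 mM Tris, pH 8.0; 15 min incubation, room temperature.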
A647 autofl: compound autofluorescence in A647 spectral region; Compound fluorescence, A647 channel (570/671 nm), Tris buffer; max dye-equivalent concentration, M; 59,000 tested, under 10 active; AID 592; active means above 1 µM dye equivalent; inconclusive means 0.1 to 1 µM; inactive means 0.1 µM or less;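 note: values scaled relative to a standard on each plate; highest value over a series up to 38 µM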
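Buffer was dispensed, compounds and Alexa 647 standards were pin-transferred, and plates sat 15 min at room temperature. Intensity at 570/671 nm was then converted to dye-equivalent concentration using the plate's A647 standard curve.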
TSHR ag: agonists of human thyroid stimulating hormone receptor | AID 926 | P16473 | Potency, µM (top dose mostly 57.1 µM), for the others: at the top dose activation, hits mostly activators | HEK293-CNG-TSHR cells (CNG channel as cAMP sensor), membrane potential dye, cAMP | 73,000 tested, 0.48% active; active = well fitted activation curve of enough size with the parental cells flat; inconclusive = any curve in the parental cells; inactive = parental cells flat and receptor cells flat or falling; note: potency is the fitted concentration of half-maximal effect; % of control where 0% means no effect; weak receptor curves with flat parental cells got no call and are not listed
Target sequence (P16473 whole entry, looked up): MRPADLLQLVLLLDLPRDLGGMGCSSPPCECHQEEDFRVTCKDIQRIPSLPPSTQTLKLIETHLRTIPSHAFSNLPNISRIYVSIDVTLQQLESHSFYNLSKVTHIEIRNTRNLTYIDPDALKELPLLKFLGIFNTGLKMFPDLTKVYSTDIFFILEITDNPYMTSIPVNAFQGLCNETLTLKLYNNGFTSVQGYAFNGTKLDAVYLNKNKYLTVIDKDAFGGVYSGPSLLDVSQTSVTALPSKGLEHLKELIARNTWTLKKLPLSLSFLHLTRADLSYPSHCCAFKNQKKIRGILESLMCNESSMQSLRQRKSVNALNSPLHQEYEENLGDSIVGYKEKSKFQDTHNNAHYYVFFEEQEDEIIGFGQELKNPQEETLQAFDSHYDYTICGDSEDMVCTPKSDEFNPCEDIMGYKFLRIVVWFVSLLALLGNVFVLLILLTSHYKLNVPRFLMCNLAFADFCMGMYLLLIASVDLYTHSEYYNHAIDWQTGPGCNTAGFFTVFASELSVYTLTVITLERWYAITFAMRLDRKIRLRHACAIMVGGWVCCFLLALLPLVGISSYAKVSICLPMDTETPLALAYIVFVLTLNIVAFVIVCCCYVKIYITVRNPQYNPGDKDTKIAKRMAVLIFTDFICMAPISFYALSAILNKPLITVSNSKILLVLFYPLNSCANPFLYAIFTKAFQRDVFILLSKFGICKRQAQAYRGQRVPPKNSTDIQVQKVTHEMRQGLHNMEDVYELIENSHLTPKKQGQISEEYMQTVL
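cAMP rise detected as CNG-channel membrane depolarization by fluorescent dye (emission 590 nm), 30 min after compound, following 60 min dye loading containing 100 uM RO 20-1724 at room temperature. Cells: TSHR/CNG HEK 293, with parental CNG HEK 293 as control.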
Numbers without * were called inactive; i = inactive; ? = inconclusive; · = not tested or not shown; [ ] = another dose, or the depositor's remark. Some of the compounds tested, so the mix of outcomes need not match the whole.

SMILES	AID923	Resorufin autofl	A488 fluor	A647 autofl	TSHR ag
CC(C)CCC[C@@H](C)[C@@H]1CC[C@@H]2[C@H]3CC[C@H]4C[C@@H](N)CC[C@@]4(C)[C@@H]3CC[C@]21C	-0.2%[11.5 µM]	i	i	1e-09	-3%[11.4 µM]
N#CCCn1nnc(-c2ccccc2F)n1	0.2%	·	·	·	-3%
C=CCOc1ccc(/C(O)=C2\C(=O)C(=O)N(CCCOC)C2c2ccc(O)c(OC)c2)cc1 (stereo not drawn)	3.0%	i	i	1.3e-09	-1%
CC(Sc1nc(-c2ccccc2)cc(C(F)(F)F)n1)C(=O)N1CCC(C(N)=O)CC1 (stereo not drawn)	-0.1%	i	i	3.2e-09	4%
Cn1nnnc1SCC1=C(C(=O)O)N2C(=O)[C@@H](NC(=O)[C@@H](O)c3ccccc3)[C@@H]2SC1	0.7%[25.7 µM]	i	i	6.1e-09	13%[25.6 µM]
Cc1ccc(OCC(=O)OC2CCS(=O)(=O)C2)cc1 (stereo not drawn)	-0.4%	i	i	2.2e-08	4%
CCN(CC)S(=O)(=O)c1ccc2c(c1)c(C(=O)O)cn2C	·	i	i	6.2e-09	·
O=C(NO)c1ccc(OC(F)F)cc1	1.8%	i	i	1.3e-09	0%
COc1cc(OC)c(C2N(c3cc(C)on3)C(=O)C3CCCN32)cc1OC (stereo not drawn)	3.1%	i	i	5.5e-09	1%
O=[N+]([O-])c1c(Cl)cc(Cl)cc1Cl	0.8%	·	·	·	?
COc1cc(C=O)c([N+](=O)[O-])cc1OC	-0.6%	·	·	·	2%
CC(C)Oc1ccc(C(=O)NCc2cccnc2)cc1	-2.6%	·	·	·	2%
CCC(=O)Nc1nc(C)cc(SCC(=O)OC)n1	-4.6%	i	i	1e-09	?
CCCCC(=O)Nc1ccc(C(=O)NCc2ccncc2)cc1	0.2%	i	i	1e-09	3%
Cc1ccc(Cn2ccc(NC(=O)c3noc4c3CCCCC4)n2)cc1	-1.8%	i	i	1e-09	?
CCCS(=O)(=O)N1CCCC(C(=O)NCCN2CCCCC2C)C1 (stereo not drawn)	1.7%	i	i	5.6e-09	·
CCOC(=O)N1CCN(C(=O)c2nn(-c3ccc(C)cc3)c(=O)c3c2c2ccccc2n3C)CC1	1.0%	i	i	4.9e-08	?
Cc1noc(C)c1C(=O)N1CCC2(CCN(Cc3nccs3)CC2)CC1	2.2%	i	i	1e-09	1%
CCOC(=O)CC(=O)CSC1=C(C#N)C(c2ccccc2OC)CC(=O)N1 (stereo not drawn)	3.0%	i	i	4.7e-08	-13%
O=C(CSc1nc(N2CCCCC2)nc(N2CCCCC2)n1)c1ccccc1	0.0%	i	i	2e-08	-10%
CC(C)OC(=O)CN1C(=O)C(C)(C)Oc2ccc(C(=O)NC3CC3)cc21	-2.2%	i	i	1e-09	-2%
O=C(CSc1nc(O)c(Cc2ccccc2F)c(=O)[nH]1)N1CCCCCC1	0.5%	i	i	1.5e-08	-4%
COCC(=O)N(Cc1ccc(OC)cc1)Cc1nc2ccccc2c(=O)[nH]1	1.5%	i	i	6.4e-08	0%
CCCS(=O)(=O)c1c(S(=O)(=O)CCC)c2c3ccccc3ccn2c1C(N)=O	-0.8%	·	·	·	-1%
COc1ccc(NC(=O)C2CCCN2c2ccc(OC)c(OC)c2)cc1OC (stereo not drawn)	-0.7%	i	i	2.1e-08	-19%

Individual results from above:
Reading of `CCCCC(=O)Nc1ccc(C(=O)NCc2ccncc2)cc1` under AID923: 0.2%
Reading of `COc1ccc(NC(=O)C2CCCN2c2ccc(OC)c(OC)c2)cc1OC` (stereo not drawn) under A647 autofl: 2.1e-08

Later entries:
SMILES	AID923	Resorufin autofl	A488 fluor	A647 autofl	TSHR ag
N#C/C(=C(/O)CN1CCOCC1)c1nc2ccccc2s1	0.2%	i	i	5.5e-08	6%
Cc1c(C(=O)CN2CCOCC2)[nH]c2ccccc12	2.9%	i	i	1e-09	·
CCOC(=O)OCC1OC(C#CC(C)(C)C)C=CC1OC(=O)OCC (stereo not drawn)	1.0%[11.5 µM]	·	·	·	3%[11.4 µM]
Cc1cccc(Cc2nnc(NC(=O)c3cccc(S(=O)(=O)N4CCOCC4)c3)s2)c1	-1.4%	·	·	·	11%
CSC1=C(C#N)C(c2cccc(Br)c2)CC(=O)N1 (stereo not drawn)	-2.5%	i	i	2.3e-08	-2%
c1ccc(CSc2nnc(-c3ccncc3)o2)cc1	1.9%	·	·	·	6%
O=C(Nc1nncs1)c1ccc(N2C(=O)C3C4C=CC(C4)C3C2=O)cc1 (stereo not drawn)	0.8%	i	i	1.8e-08	3%
CSc1nsc(SC)c1NC(=O)OCc1ccccc1	-0.5%	i	i	1.4e-08	?
COc1ccc(C2C(C(=O)c3cccs3)=C(O)C(=O)N2c2nncs2)cc1 (stereo not drawn)	0.9%	·	·	·	8%
c1ccc2c(c1)[nH]c1c(NCC3CCCO3)ncnc12 (stereo not drawn)	1.3%	i	i	3.1e-08	15%
COc1ccc(NC(=O)c2ccccc2NS(C)(=O)=O)cc1OC	-1.9%	i	i	2.6e-08	-4%
CCC1c2ccc(C)n2CCN1C(=O)Nc1ccc(F)cc1 (stereo not drawn)	21%	i	i	2.7e-08	-11%
CN(C)CCCNC(=O)CC(c1ccccc1)c1ccccc1O (stereo not drawn)	1.3%	i	i	3e-08	-2%
O=C(Nc1cn(-c2ccccc2)nc1-c1cccs1)c1ccco1	0.1%	i	i	1e-09	?
CCC1=C(C(=O)OC)C(c2cc(OC)ccc2OC)C(C#N)=C(N)O1 (stereo not drawn)	·	i	i	2.6e-08	·
Cc1nn(-c2ccccn2)c2c1-c1nc(N)ncc1CC2	0.5%	i	i	6.1e-09	2%
Oc1ccc(CN2CCCCC2)nc1-c1ccccc1	0.4%	i	i	4.1e-08	6%
Cc1nnc(SCc2ccc(Cl)cc2)n1CC1CCCO1 (stereo not drawn)	1.2%	i	i	2.3e-09	5%
COc1cc2c(cc1NCc1ccccn1)oc1ccccc12	3.1%	i	i	1.4e-08	13%
COc1ccc(NC(=O)N(Cc2ccc(C)cc2)Cc2ccccn2)c(OC)c1	-4.2%	·	·	·	?
CCOC(=O)CSc1nnc(Cn2nnc(-c3ccccc3)n2)n1C	0.8%	i	i	1.8e-08	6%
C=C(C)C(O)/C=C/c1ccc(C)cc1 (stereo not drawn)	-0.3%[11.5 µM]	·	·	·	4%[11.4 µM]
COc1cc2cc(CN(CCO)S(=O)(=O)c3ccccc3Cl)c(=O)[nH]c2cc1OC	13%	i	i	2.5e-08	1%
C[C@@H]1NC(=O)C/C=C\[C@@H](C)[C@@H]2C=C[C@H](O)[C@@H](COC(=O)[C@H](C)NC(=O)C/C=C\[C@@H](C)[C@@H]3C=C[C@H](O)[C@@H](COC1=O)O3)O2	-1.8%[11.5 µM]	·	·	·	5%[11.4 µM]
O=C(CCc1nc(-c2ccccc2)no1)NCC1CCCO1 (stereo not drawn)	0.0%	i	i	1e-09	12%

The list continues:
SMILES	AID923	Resorufin autofl	A488 fluor	A647 autofl	TSHR ag
CC(C)COC(=O)n1c(SCC(=O)N(C)C)nc2ccccc21	-2.0%	i	i	3e-09	?
COc1ccc(Cn2c(CCCO)nc3ccccc32)cc1OC	·	i	i	1.3e-09	·
Cc1nn2c(N3CCN(c4ccccn4)CC3)cc(C(C)C)nc2c1-c1ccccc1	0.7%	i	i	3.8e-08	3%
COc1ccc(-c2nc3n(n2)C(c2ccccc2Cl)C(C(N)=O)=C(C)N3)cc1 (stereo not drawn)	0.4%	·	·	·	-7%
CN1C(=O)C2(C(C#N)=C(N)Oc3n[nH]c(-c4ccc(Cl)cc4)c32)c2ccccc21 (stereo not drawn)	-1.8%	i	i	1.7e-09	-7%
CC(CNC(=O)C1CCCCC1)NC(=O)C1CCCCC1 (stereo not drawn)	3.4%	·	·	·	-3%
CC(C)c1ccc(/C=C2\C=C(c3ccc4ccccc4c3)OC2=O)cc1	4.0%[11.5 µM]	i	i	4.1e-09	7%[11.4 µM]
O=C(CCN1C(=O)C2C3C=CC(C3)C2C1=O)NCCc1ccccc1 (stereo not drawn)	-0.1%	i	i	1e-08	3%
C=CCn1c(SCC(=O)O)nnc1-c1ccc(C(C)(C)C)cc1	-2.9%	i	i	1e-09	5%
C=CCn1c(NCCO)nc2sc3c(c2c1=O)CCC3	-1.6%	·	·	·	-17%
COc1ccc(C2=Nn3c(nnc3-c3cccnc3)SC2)cc1	-1.6%	i	i	2.4e-08	1%
Nc1nc(SC/C=C\c2ccccc2)c2[nH]cnc2n1	4.6%[11.5 µM]	i	i	3.4e-08	-4%[11.4 µM]
CCOC(=O)Cn1nnc(-c2ccc(OCC(C)C)cc2)n1	0.0%	i	i	4.4e-09	-2%
COc1ccccc1CNc1ccnc(-c2cccnc2)n1	1.9%	i	i	2.3e-08	?
COc1ccc(Cn2nnnc2C(c2cccs2)N2CCOCC2)cc1 (stereo not drawn)	-0.3%	i	i	4.6e-09	21%
COC(=O)NC(CC(C)=O)c1cccs1 (stereo not drawn)	-1.9%[11.5 µM]	·	·	·	-5%[11.4 µM]
Cc1cnc(CNc2ccnc(-c3ccc(C(=O)N(C)C)cc3)n2)cn1	-1.1%	i	i	2.1e-08	2%
CCC[C@@H]1C[C@@]1(CCC)C(NC(=O)c1ccc(-c2ccccc2)cc1)c1cccc(Cl)c1 (stereo partly drawn)	1.6%	·	·	·	3%
COc1ccc2c(c1)CCc1c(C(=O)NCCc3ccc(OC)c(OC)c3)noc1-2	0.2%	i	i	3.5e-08	·
CC12C(=O)N(Cc3ccccc3)C(=O)C1C1C=CC2C1 (stereo not drawn)	3.5%	i	i	2.1e-08	11%
COCCn1c(SCc2ccc(C(=O)OC)o2)nc2cc(Cl)ccc2c1=O	-0.4%	i	i	5.8e-09	?
Cc1cccc(NC(=O)C2CCCN(C(=O)NC3CCCCC3)C2)c1C (stereo not drawn)	2.0%	i	i	1.8e-09	6%
CCOC(=O)c1ccc(N2C(=O)CC(N3CC(C)OC(C)C3)C2=O)cc1 (stereo not drawn)	-2.4%	i	i	1.5e-08	-9%
CCOC(=O)c1c(C)c(C(=O)NCC2CCCO2)c(C)n1C (stereo not drawn)	0.0%	i	i	1e-09	?
COC(=O)COc1cccc(NC(=O)c2ccccc2)c1	-1.9%	i	i	3e-08	-2%

(cont.)
SMILES	AID923	Resorufin autofl	A488 fluor	A647 autofl	TSHR ag
O=C1C2C3C=CC(C3)C2C(=O)N1CCCO (stereo not drawn)	-0.3%	i	i	4.4e-08	?
CC1(C)CC(=O)C2=C(C1)NCN(Cc1ccccc1)C2	2.0%	i	i	1e-09	1%
N#CCSc1nc2c(c(=O)n1Cc1ccco1)C1(CCCC1)Cc1ccccc1-2	·	i	i	1.8e-09	·
c1ccc(-c2nc(NCC3CCCO3)c3ccccc3n2)nc1 (stereo not drawn)	·	i	i	6.9e-09	·
O=C(CCn1nc(-c2ccccc2)c2ccccc2c1=O)N1CCN(c2ccccc2)CC1	-1.5%	i	i	1e-09	?
COc1cccc(NC(=O)c2ccccc2NS(C)(=O)=O)c1	-1.3%	i	i	1e-09	-1%
O=C(CSc1ccc2c(c1)OCCO2)NCCN1C(=O)CSC1=O	1.6%	i	i	2.5e-08	4%

Whole records, quoted from the list. Order of screens: AID923	Resorufin autofl	A488 fluor	A647 autofl	TSHR ag
CC1(C)CC(=O)C2=C(C1)NCN(Cc1ccccc1)C2 in the list: 2.0%	i	i	1e-09	1%
COc1cccc(NC(=O)c2ccccc2NS(C)(=O)=O)c1 in the list: -1.3%	i	i	1e-09	-1%
O=C(CCn1nc(-c2ccccc2)c2ccccc2c1=O)N1CCN(c2ccccc2)CC1 in the list: -1.5%	i	i	1e-09	?
N#CCSc1nc2c(c(=O)n1Cc1ccco1)C1(CCCC1)Cc1ccccc1-2 in the list: ·	i	i	1.8e-09	·
